Kir21 block – inhibitors of mouse Kir2.1 inward-rectifier potassium channel. P35561. HEK293-Kir2.1, FluxOR thallium flux fluorescence; active compounds read low. B-score at 10 µM. hit rate 0.85% among 310,000;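 active = fluorescence ratio B-score at or below minus 3 SD of library scores, with starting-brightness B-score within 2 SD, cut at about -4.2 in these data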;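 note: channel flux triggered by added potassium and thallium sulfate stimulus; B-score of peak minus minimum fluorescence over baseline after thallium stimulus; more negative B-score means stronger Kir2.1 block with less thallium influx; some compounds called inactive have numbers as strong as hits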
Target sequence (P35561 whole entry, looked up): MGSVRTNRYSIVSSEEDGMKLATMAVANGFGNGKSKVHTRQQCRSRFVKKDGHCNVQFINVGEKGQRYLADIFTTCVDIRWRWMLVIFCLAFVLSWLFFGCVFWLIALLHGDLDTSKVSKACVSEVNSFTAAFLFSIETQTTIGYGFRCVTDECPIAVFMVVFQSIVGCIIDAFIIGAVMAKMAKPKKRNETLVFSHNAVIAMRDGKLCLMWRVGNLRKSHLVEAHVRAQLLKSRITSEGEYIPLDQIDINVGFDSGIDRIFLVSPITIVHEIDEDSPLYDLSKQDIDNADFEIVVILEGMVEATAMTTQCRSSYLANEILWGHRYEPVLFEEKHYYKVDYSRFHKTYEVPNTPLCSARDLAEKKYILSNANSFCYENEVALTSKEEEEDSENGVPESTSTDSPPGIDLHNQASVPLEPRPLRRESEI
STK33 kinase inh – blocks human STK33 kinase activity; Q9BYT3; inhibition, % at 10 µM; purified STK33, MBP phosphorylation, ADP-Glo luminescence; hit rate 0.073% among 320,000;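 active = inhibition at or above 25%, using the most active replicate where run in duplicate; inactive = inhibition below 25%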
Target sequence (Q9BYT3 whole entry, looked up): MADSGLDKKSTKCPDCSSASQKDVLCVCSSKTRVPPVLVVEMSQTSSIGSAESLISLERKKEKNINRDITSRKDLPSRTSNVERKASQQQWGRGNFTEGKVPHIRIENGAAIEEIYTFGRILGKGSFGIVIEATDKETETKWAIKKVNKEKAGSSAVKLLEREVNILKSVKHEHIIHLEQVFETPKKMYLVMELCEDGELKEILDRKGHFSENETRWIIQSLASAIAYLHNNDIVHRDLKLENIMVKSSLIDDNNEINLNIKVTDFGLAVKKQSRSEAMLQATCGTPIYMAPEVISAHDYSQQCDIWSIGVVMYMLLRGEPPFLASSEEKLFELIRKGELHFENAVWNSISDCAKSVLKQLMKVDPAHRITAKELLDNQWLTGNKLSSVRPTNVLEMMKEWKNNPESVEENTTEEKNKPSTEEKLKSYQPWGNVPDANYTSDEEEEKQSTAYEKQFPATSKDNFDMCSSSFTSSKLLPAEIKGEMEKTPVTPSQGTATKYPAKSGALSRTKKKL
The depositor's hits bear a star; . = no result given.

SMILES	Kir21 block	STK33 kinase inh
CC(=O)c1ccc(N2C(=O)C3C4C=CC(CC4)C3C2=O)cc1 (configuration not stated)	-0.03	-0.8
COc1cc(CNCCNC(=O)c2nonc2N)ccc1OCc1ccc(Cl)cc1	-6.7*	1.3
FC(F)(F)c1ccccc1NC(=S)Nn1cnnc1	0.59	-0.2
CC1CN(C(=S)SCCN2C(=O)CCC2=O)CC(C)O1 (configuration not stated)	0.08	-1.5
O=C(c1cc(-c2cccs2)nc2ccccc12)N1CCN(c2ccccc2)CC1	0.36	-1.1
N#Cc1c(Nc2ccccc2)sc(C(=O)C2CC2)c1N	-0.41	0.1
O=[N+]([O-])c1ccc(Oc2cccc(C(F)(F)F)c2)nc1	-0.5	-0.2
Cc1ccccc1/C=N/NC(=O)CSc1nc2ccccc2o1	-0.1	-1.9
CN(C)N1C(=O)/C(=C/c2ccco2)SC1=Nc1ccccc1	1.1	-1.7
COc1ccc(C(F)(F)F)cc1N/C=C/c1nnnn1-c1ccc2ccccc2c1	0	-1.2
C#Cc1cccc(NC(=O)CSc2nnc(-c3ccc(C(F)(F)F)cn3)o2)c1	2.4	-0.6
COc1ccnc(CN(C)C(=O)C2CCC(=O)N(Cc3cccc(C(F)(F)F)c3)C2)c1 (configuration not stated)	0.01	-0.9
Cc1nn(Cc2cccc(C(=O)NN)c2)c(C)c1Cl	-1.5	-1.3
O=C(O)C1C2C=CC(C2)C1C(=O)N1CCc2ccccc21 (configuration not stated)	-0.72	-0.5
COc1cccc(-n2c(Cc3cc(=O)[nH]c(=O)[nH]3)nnc2SCC(=O)N2CCCC2)c1	1.1	1.3
CCOC(=O)CSc1nnc(Cn2c(=O)sc3ccccc32)n1-c1ccccc1C	-1.6	1.9
CC1(C)CC(NCc2ccc3c(c2)OCO3)CCO1 (configuration not stated)	1.8	-2.6
CCN(CC)C(=O)C1=C(C)NC(=S)NC1c1ccc(C)s1 (configuration not stated)	-0.43	-1.1
COc1ccc(CCNC(=O)CN2CCN(c3ccccc3Cl)CC2)cc1	-1.2	1.6
Cc1c(NS(=O)(=O)c2ccc(NCC3CCCO3)c([N+](=O)[O-])c2)c(=O)n(-c2ccccc2)n1C (configuration not stated)	-1.4	-2.0
Cc1cc(=O)oc2cc(NS(=O)(=O)c3ccc(F)cc3)ccc12	-2.7	-0.3
O=C(O)c1ccc(-c2ccc(OS(=O)(=O)c3ccccc3F)cc2)cc1	1.1	-2.6
CC(C)c1cc(=O)n2[nH]c(SCc3ccc(Cl)cc3)nc2n1	-0.03	0.2
CCOC(=O)c1ccc2c(c1)nc(C1CCN(S(=O)(=O)c3cccs3)CC1)n2CC	1.5	0.6
CCC(C)(C)NC(=O)CCCSc1nc2ccccc2[nH]1	1.6	-1.0
Remaining list, next part:
SMILES	Kir21 block	STK33 kinase inh
Cc1ccc(Nc2c([N+](=O)[O-])c(=O)n(C)c3ccccc23)cc1C	1	-0.9
Cc1ccc(Nc2nc(N)nc(CC#N)n2)cc1	0.58	-2.4
CC(C)NC(=O)c1ccc(CN2CCC(Cc3ccccc3)CC2)cc1	-0.22	-0.7
Cc1nn(C)c(Cl)c1CN1CCC(Oc2ccc(C(=O)N3CCCC3)cc2)CC1	-0.7	-0.6
O=C(C1CCC(CNc2c(N3CCCCC3)c(=O)c2=O)CC1)N1CCN(c2ccccn2)CC1 (configuration not stated)	-1.6	0.6
O=S(=O)(NCc1ccccn1)c1cc(C(F)(F)F)ccc1Cl	0.08	-0.9
CN1C(=O)[C@@H]2[C@H](C1=O)[C@@H]1C(=O)Nc3ccccc3C(=O)N1[C@@H]2c1ccc(Br)cc1	0.01	-1.9
CCN(c1cccc(C)c1)S(=O)(=O)c1ccc2c(c1)NC(=O)CCS2	0.77	0.7
CCCN1CCN(C(=O)C2CCCN(c3ncnc4c3nc3n4CCCCC3)C2)CC1 (configuration not stated)	1.6	1.6
O=C(NCCCN1CCOCC1)c1ccc(Cl)cc1[N+](=O)[O-]	-1.1	-0.7
Cc1snc(SCc2ccc(Cl)cc2)c1C#N	-1.5	0.7
CN(Cc1cnccn1)Cc1nc(Cc2cccc(F)c2)no1	-3	-1.8
CCCCc1c(C)nn(-c2nnc3c4ccccc4n(CC)c3n2)c1C	0.01	2.3
Fc1ccc(N2CCN(Cc3cnc(Oc4ccc(Br)cc4)s3)CC2)cc1	0.3	-1.3
Cc1ccc(N(Cc2cc3ccc(C)cc3[nH]c2=O)S(=O)(=O)c2ccccc2)cc1	0.01	0.1
CCCCCN(C(=O)CCC(=O)OCC(=O)N(C)c1ccccc1)c1c(N)n(CCCC)c(=O)[nH]c1=O	1.8	-2.1
CCOc1ccc(NC(=O)CCC(=O)Oc2ccc(C)cc2)cc1	0.24	2.3
CC(=O)Nc1ccc(S(=O)(=O)NCCC(=O)OCC(=O)c2ccccc2)cc1	0.44	-0.1
Cc1nc2nc(SCC(=O)NCCCN3CCCC(C)C3)nn2c(C)c1Cc1ccccc1Cl (configuration not stated)	-0.5	1.1
CC(=O)N=c1c(C#N)cc2c(=O)n3cccc(C)c3nc2n1Cc1ccco1	-0.71	0.1
O=c1oc2ccccc2n1CCCCCn1c(=O)oc2ccccc21	1	-1.5
COc1ccc(/C=N/N=C2/NC(=O)C(CC(=O)O)S2)cc1OS(=O)(=O)c1ccccc1 (configuration not stated)	-0.47	1.7
COc1cc(C(=O)NNC(=O)c2ccoc2C)cc(OC)c1OC	-0.14	-1.2
N#Cc1nc(-c2ccc(F)cc2)oc1NCc1ccccc1	1.1	-0.6
CC(=O)c1cccc(NC(=O)c2nc(-c3ccccc3)oc2C)c1	-1.7	-0.8
Next part:
SMILES	Kir21 block	STK33 kinase inh
CC(C)OCCCNC(=O)[C@H]1N2C(=O)c3ccccc3C2SC1(C)C (some centres not stated)	0.09	-1.2
Cc1cc(=O)oc2cc3c(cc12)OCO3	-1.7	-2.8
Cc1ccnc(NC(=O)COc2ccc3oc4c(c3c2)CCCC4)c1	0.21	0.0
CCOc1cc(N2CCOCC2)c(OCC)cc1NC(=O)c1ccc(OC(C)C)cc1	2.2	-0.5
O=C(CNS(=O)(=O)c1cccc2nsnc12)NCc1ccc(Cl)cc1	0.56	-0.8
Cc1ccc(/C=N/NC(=O)c2nnn(-c3nonc3N)c2-c2ccccc2)o1	-0.83	2.3
OC(CN1C2=NCCN2c2ccccc21)c1ccccc1 (configuration not stated)	-0.07	-0.9
CC(C)Cc1nnc(NC(=O)CCC(=O)N2CCN(c3ccc(Cl)cc3)CC2)s1	-0.02	0.3
Cc1ccccc1-c1nc(CN2CCC(C(=O)NCc3ccco3)CC2)c(C)o1	-2.9	-0.6
CCCCc1nc2cc(C(=O)NCc3cn(C)nc3C)ccc2o1	0.91	-2.7
Cc1ccc(C2(c3noc(CN4CCOCC4)n3)CCCC2)cc1	-1.9	-0.7
CN(Cc1ccccc1)C(=O)COC(=O)c1ccccc1Nc1ccccc1	-0.17	0.4
COCCCN(C(=O)CCOc1ccccc1C)c1c(N)n(Cc2ccccc2)c(=O)[nH]c1=O	0.02	0.3
COc1ccc(CCN(C)C(=O)c2cccc(S(=O)(=O)NCc3ccccc3)c2)cc1OC	0.09	-0.7
N#CCCn1cc(/C=C/C(=O)O)c(-c2ccc(F)cc2)n1	0.07	0.5
COc1ccc(C2CC(c3cccs3)=NN2C(=O)CSc2nc(=O)n3ccc(C)cc3n2)cc1 (configuration not stated)	-0.23	-1.4
Cc1ccc(NC(=O)c2cnccn2)cc1	0.04	-0.3
CCOC(=O)C(NC(=O)CC)(Nc1ccc(S(=O)(=O)Nc2cc(C)on2)cc1)C(F)(F)F (configuration not stated)	-0.42	2.3
CCOC(=O)Nc1nc(C)c(C(=O)c2ccc(Cl)cc2)s1	-0.55	-0.1
CCc1cccc(CC)c1NC(=O)C[n+]1cccc(C(N)=O)c1	0.21	-0.3
CC(NC(=O)Nc1ccccc1)C(c1cccs1)N1CCOCC1 (configuration not stated)	-0.33	0.2
COc1ccc(CC(=S)N2CCOCC2)cc1F	0.8	-1.3
CCCCCCn1cnc2c(oc3nc4c(cc32)CCCC4)c1=O	0.82	-1.2
Cn1c(C(=O)NCCN2CCc3ccccc3C2)cc2c(=O)[nH]c3ccccc3c21	0.08	1.6
COc1ccc2nc(NC(=O)C3CCN(C(=O)c4ccc(F)cc4)CC3)sc2c1	0.69	4.4

Compound profiles, as listed above. Values in the order: Kir21 block | STK33 kinase inh
CCOC(=O)Nc1nc(C)c(C(=O)c2ccc(Cl)cc2)s1 in the list: -0.55 | -0.1
CCCCc1nc2cc(C(=O)NCc3cn(C)nc3C)ccc2o1 in the list: 0.91 | -2.7
COc1ccc(CCNC(=O)CN2CCN(c3ccccc3Cl)CC2)cc1 in the list: -1.2 | 1.6
Cn1c(C(=O)NCCN2CCc3ccccc3C2)cc2c(=O)[nH]c3ccccc3c21 in the list: 0.08 | 1.6
CC(C)c1cc(=O)n2[nH]c(SCc3ccc(Cl)cc3)nc2n1 in the list: -0.03 | 0.2

Continuation:
SMILES	Kir21 block	STK33 kinase inh
C=CCn1c(-c2ccccc2)nc2nc3ccccc3nc21	1.1	-2.4
CCCCn1c(SCC(=O)N2CCOCC2)nc2ccccc2c1=O	1.2	-0.2
CCC(=O)Nc1ccc(C(=O)NNC(=O)c2ccc(Cl)cc2)cc1	0.11	.
O=c1[nH]c(SCc2ccccc2Cl)nc2c1CCC2	-0.32	0.5
CCOC(=O)C1CCN(S(=O)(=O)c2cccc(-c3cn4cccnc4n3)c2)CC1	1.9	-0.2
COc1cccc(NC(=O)CSc2nc3ccccc3c(=O)n2CCCC(=O)NCCCN2CCOCC2)c1	0.34	0.2
O=C(CN1CCN(CC(=O)Nc2ccccc2Cl)CC1)Nc1ccc2c(c1)OCCO2	-0.25	0.0
Cc1ccc(-n2c(C)cc(-c3csc(N)n3)c2C)cc1	2.1	0.1
Cn1ccnc1C(=O)c1ccc(S(=O)(=O)N2CCCC2)cc1	0.02	-1.0
CCn1c(SCC(=O)Nc2ccc(Cl)cc2)nnc1C1CC1	0.76	-1.4
COc1ccc([C@@H]2[C@@H]3C(=O)N(C(C)(C)C)C(=O)[C@@H]3[C@]3(Cc4ccccc4)C(=O)N(c4cccc(Br)c4)C(=O)N23)cc1	-0.86	-0.9
CCn1c2ccccc2c2cc(N)ccc21	-0.13	0.1
Cc1c(O)c(S(=O)c2ccccc2)c(=O)n(-c2ccccc2)c1-c1ccccc1 (configuration not stated)	-1.3	-2.5
O=C(CC1Sc2ccccc2NC1=O)Nc1cccc(-c2nnc3n2CCCCC3)c1 (configuration not stated)	0.53	-0.5
CCOc1ccc(C2C(C#N)=C(N)N(N(C)C)C3=C2C(=O)CCC3)cc1 (configuration not stated)	-0.39	0.1
COc1ccc(NC(=O)C(c2cc3c(cc2[N+](=O)[O-])OCO3)N(C)C)cc1 (configuration not stated)	0.31	-0.2
Cc1cc(NS(=O)(=O)c2ccc(NC(=O)c3cccnc3)cc2)nc(C)n1	-0.67	-0.6
COc1ccc(-c2cc(C(F)(F)F)nc(N3CCCCCC3)n2)cc1	0	0.3
Cc1nc(CNC(=O)CC2C(=O)NCCN2Cc2cccc(Oc3ccccc3)c2)cs1 (configuration not stated)	-2.1	-1.8
CC1CC(C)CN(C(=O)c2nn(C)c3c2CSc2ccccc2-3)C1 (configuration not stated)	0.22	-1.8
CCO[C@H]1OC(C(=O)N2CCN(C)CC2)=C[C@@H](c2ccc3c(c2)OCO3)[C@@H]1CCCO	0.02	-1.4
O=C(CSc1nc2nc3c(cc2c(=O)n1-c1ccccc1)CCCC3)Nc1cccc2ccccc12	0.03	0.2
COc1ccc(C(=O)Nc2ccccc2N2CCCC2)cc1	0.5	-0.8
COc1ccc(-n2c(N)cc(=O)nc2SCC(=O)N2CCN(c3ccccc3)CC2)cc1	-1.1	3.9
COC(=O)CCCC1=CC2=C(c3ccccc3)C(=O)C(C)(OC(=O)C3CCCC3)C(=O)C2=CN1CC(C)C (configuration not stated)	-0.31	0.8

Six of the entries above in order of their number in Kir21 block, ascending.
SMILES	Kir21 block	STK33 kinase inh
COc1ccc([C@@H]2[C@@H]3C(=O)N(C(C)(C)C)C(=O)[C@@H]3[C@]3(Cc4ccccc4)C(=O)N(c4cccc(Br)c4)C(=O)N23)cc1	-0.86	-0.9
O=c1[nH]c(SCc2ccccc2Cl)nc2c1CCC2	-0.32	0.5
COc1ccc(-c2cc(C(F)(F)F)nc(N3CCCCCC3)n2)cc1	0	0.3
CCO[C@H]1OC(C(=O)N2CCN(C)CC2)=C[C@@H](c2ccc3c(c2)OCO3)[C@@H]1CCCO	0.02	-1.4
COc1cccc(NC(=O)CSc2nc3ccccc3c(=O)n2CCCC(=O)NCCCN2CCOCC2)c1	0.34	0.2
Cc1ccc(-n2c(C)cc(-c3csc(N)n3)c2C)cc1	2.1	0.1

Next section
SMILES	Kir21 block	STK33 kinase inh
O=C(CSc1nnc(Cn2c(=O)sc3ccccc32)n1CCc1ccccc1)N1CCCC1	0.52	-1.1
O=C1NN(c2cccc(Br)c2)C(=O)/C1=C\c1ccccc1	-0.6	0.5
Cc1c(N=C(N)/N=C(\N)Nc2ccc(Br)cc2)c(=O)n(-c2ccccc2)n1C	0.22	0.8
COc1ccc(S(=O)(=O)N2CC(=O)Nc3ccccc32)cc1Cl	-3.2	4.0
C=CCn1c(SCC(=O)Nc2sc(C)c(C)c2C(=O)OCC)nnc1-c1sc(N)nc1C	1.1	-1.7
O=C(c1ccc2c(=O)n3c(nc2c1)CCCCC3)N1CCN(c2cccc(Cl)c2)CC1	-0.66	-0.4
O=C(CCC1CCCCC1)Nc1ccccc1C(=O)N1CCOCC1	-2.2	-0.7
NS(=O)(=O)c1ccc(NC(=S)N2CCC(Cc3ccccc3)CC2)cc1	-0.4	-2.3
CC(COc1cccc2ccccc12)CN1CCN(C)CC1 (configuration not stated)	-1.5	0.4
CCOc1cc(S(=O)(=O)N2CCN=C2Cc2ccccc2)ccc1F	0.23	-1.4
CC(Oc1ccc2ccc(=O)oc2c1)C(=O)NC(Cc1c[nH]c2ccc(O)cc12)C(=O)O (configuration not stated)	0.29	-0.3

Screening results from PubChem.

A portion of the library, and most or all hits are left out here.
